Cruzain inh Det = inhibitors of Trypanosoma cruzi cruzain with detergent; purified cruzain, Z-FR-AMC fluorescence, 0.01% Triton; AID 1478; 0.43% of 200,000 active; P25779; Potency, µM, for inactives: max response, negative = inhibition, usual class: inhibitors;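 further: plate controls were neutral wells for no effect and buffer without enzyme for full effect; nearly all actives have a fitted effect of over 40% in size; top concentration of the series not given in the record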
Target sequence (P25779 123-467 limits assumed): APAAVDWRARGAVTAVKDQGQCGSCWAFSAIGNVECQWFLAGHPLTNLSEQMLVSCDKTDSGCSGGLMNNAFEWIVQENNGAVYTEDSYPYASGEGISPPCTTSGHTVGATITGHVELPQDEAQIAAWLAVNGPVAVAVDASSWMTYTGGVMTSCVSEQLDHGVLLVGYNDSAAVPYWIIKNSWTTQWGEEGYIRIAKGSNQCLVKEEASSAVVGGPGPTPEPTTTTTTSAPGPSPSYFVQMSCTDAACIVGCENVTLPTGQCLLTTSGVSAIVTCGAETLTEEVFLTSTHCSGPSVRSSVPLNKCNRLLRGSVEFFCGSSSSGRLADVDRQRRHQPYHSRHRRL
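Detergent-containing run (0.01% Triton X-100) in acetate buffer pH 5.5 with 5 mM DTT: enzyme at 1.5 nM final, 15 min compound preincubation at room temperature, then 2 uM Z-FR-AMC substrate. Activity taken as 60 s fluorescence increase at 360/450 nm.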
Cruzain inh noDet = inhibitors of Trypanosoma cruzi cruzain without detergent; P25779; purified cruzain, Z-FR-AMC fluorescence, no detergent; Potency, µM, for the others: max response, negative = inhibition, most hits filed as inhibitors; 2.3% of 200,000 active; AID 1476;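 further: plate controls were enzyme without inhibitor for no effect and buffer without enzyme for full effect; nearly all actives have a fitted effect of over 40% in size; top concentration of the series not given in the record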
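Detergent-free condition (0.00005% Triton X-100) in acetate buffer pH 5.5 with DTT. 1.5 nM enzyme and compound were pre-mixed 15 min, then 2 uM Z-FR-AMC substrate added; reaction progress from fluorescence change between first and third reads (60 s).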
MARV entry inh = blocks Marburg virus binding to or entry into cells; Marburg virus pseudotyped entry inhibition, cell reporter; control for the full effect not named in the record; about a third of the inactives were read at about 46 µM; Potency, µM (titrated, usually from 37.8 µM), for inactives: at the top dose activity change, negative = inhibition, usual class: inhibitors; 1.8% of 300,000 active; AID 540276; active = well fitted inhibition curve with a large enough effect; inconclusive = small, poorly fitted or top-dose-only effect, or effect the other way; inactive = flat fitted curve, though single readings scatter; tested in HEK293 cells; about a fifth of its hits are not listed in these tables; further: on the % scale 0 is the no-effect control and ±100 the full control effect; luciferase read-out
RE007 growth inh = less growth of the S. pombe RE007 Vpr strain; S. pombe RE007 Vpr strain, BacTiter-Glo ATP luminescence, 24 h; control for the full effect not named in the record; Potency, µM (top dose mostly 92.2 µM), for inactives: at the top dose activity change, negative = less growth; 0.21% of 360,000 active; AID 651644; active = well fitted falling curve with a large enough effect; inconclusive = small, poorly fitted or top-dose-only effect; inactive = no such curve, though single readings can be large or run the other way;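 further: on the % scale 0 is the no-effect control and ±100 the full control effect; nearly all actives have a fitted effect of over 50% in size; the assay follows cell death caused by Vpr and the record does not say whether a fall means rescue or toxicity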
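Fission yeast strain RE007, carrying one chromosomally integrated HIV-1 vpr copy, was seeded at OD 0.01 in PMG+AL medium with 23 nL pinned compound. After 24 h at 30 °C and 99% humidity, viability was read by BacTiter-Glo luminescence.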
NS1 function inh = inhibitors of influenza NS1 protein function. S. cerevisiae slowed by influenza A NS1, growth recovery by OD600. Potency, µM (titrated, usually from 46.1 µM), for inactives: at the top dose activity, positive = more growth. 0.4% of 270,000 active; active means well fitted rising curve with a large enough effect; inconclusive means small, poorly fitted or top-dose-only effect; inactive means no such curve, though single readings can be large or run the other way; further: nearly all actives have a fitted effect of over 50% in size
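S. cerevisiae expressing influenza A NS1, grown in glucose, washed, then diluted 1:100 into pH 6.0 -URA galactose medium with 23 nl compound. Growth recovery read as OD600; NS1-free strain serves as control.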
StopGo reporter = FMDV 2A StopGo reporter, luciferase signal; human cells with a luciferase reporter of 2A StopGo recoding; control for the full effect not named in the record; Potency, µM (doses to about 57.9 µM), for the others: top-dose signal change, negative = less light; 1.2% of 410,000 active; active = well fitted falling curve with a large enough effect; inconclusive = small, poorly fitted or top-dose-only effect; inactive = no such curve, though single readings can be large or run the other way; tested in HEK293T cells; further: on the % scale 0 is the no-effect control and ±100 the full control effect; nearly all actives have a fitted effect of over 45% in size; luciferase light after 4 h
SARS PLpro yeast = blocks SARS-CoV papain-like protease in a yeast assay | S. cerevisiae expressing SARS-CoV PLpro, growth rescue; control for the full effect not named in the record | Potency, µM (highest dose often 32.9 µM), without a hit: top-dose activity, positive = growth rescue | 0.19% of 330,000 active | AID 485353; active means well fitted rising curve with a large enough effect; inconclusive means small, poorly fitted or top-dose-only effect; inactive means no such curve, though single readings can be large or run the other way; further: 0% is about no effect; nearly all actives have a fitted effect of over 55% in size; growth read by luminescence after 48 h
LASV entry inh = inhibitors of Lassa virus binding or cell entry | Lassa virus pseudotype entry inhibition, cell reporter; control for the full effect not named in the record | Potency, µM (titrated, usually from 37.9 µM), for the others: at the top dose activity change, negative = inhibition, hits mostly inhibitors | 1.2% of 300,000 active | AID 540256; active means well fitted inhibition curve with a large enough effect; inconclusive means small, poorly fitted or top-dose-only effect, or effect the other way; inactive means flat fitted curve, though single readings scatter; tested in HEK293 cells; further: on the % scale 0 is the no-effect control and ±100 the full control effect; nearly all actives have a fitted effect of over 50% in size; luciferase read-out
Starred values were filed as active, the others as inactive; ? = inconclusive; · = no result given; [ ] = dose if it differs, or a comment. Unless noted, the call rests on the fitted dose curve; in most records, active means well fitted curve in the direction sought with a large enough effect; inconclusive means small, poorly fitted or top-dose-only effect, or another doubt; inactive means no such curve, though single readings can be large; an effect the other way counts as inactive or inconclusive. Potency means the concentration at half of the fitted maximal effect.

SMILES | Cruzain inh Det | Cruzain inh noDet | MARV entry inh | RE007 growth inh | NS1 function inh | StopGo reporter | SARS PLpro yeast | LASV entry inh
COc1cccc(-n2c(Cc3cc(=O)[nH]c(=O)[nH]3)nnc2SCC(=O)N2CCC(C)CC2)c1 | -3.2% | -3% | 1% | 4% | 1% | -11% | -2% | -13%
Cc1ncc(CC(=O)n2cc(C(=O)c3cc(Cl)ccc3O)cn2)s1 | -2.2% | 11% | 9% | 6% | -64% | ? | -3% | ?
Cc1nn(-c2ccccc2)c(C)c1P(=O)(c1ccccc1)N(C)C (configuration not stated) | 3.5% | 13% | 5% | 1% | -14% | · | -5% | ?
Cc1ccc(Nc2c(-c3ccc(C)cc3)nc3c(C)cccn23)cc1 | -17% | ? | ? | · | · | -13% | · | 12%[46.1 µM]
O=C(O)C1Nc2ccc(Br)cc2C2C=CCC12 (configuration not stated) | · | · | · | 5% | 25% | -11% | -3% | ·
CC(C)(C)c1ccc(C(=O)NCC(=O)OCCN2C(=O)c3ccccc3C2=O)cc1 | · | · | -8% | 28% | · | 26% | · | -7%[46.1 µM]
Cc1ccc2cc(CN(C(=O)c3ccco3)c3cccc(C)c3C)c(=O)[nH]c2c1 | · | · | ? | 19% | 4% | 2% | 1% | ?
CCNc1nc(NCC)nc(N/N=C/c2ccc(O)c(O)c2)n1 | · | · | · | -10% | -8% | -10% | 11µM* | ·
CCNC(=S)N(CCN(C)C)Cc1cc2cc(OCC)ccc2[nH]c1=O | · | · | -23% | -5% | 2% | 1% | -2% | 5%
Cc1sc2ncnc(N3CCC(C(=O)Nc4ccc(C#N)cc4)CC3)c2c1C | · | · | 20% | 3% | · | ? | -1% | -7%
Cn1c(N)c(C(=O)COC(=O)CNC(=O)c2ccccc2)c(=O)n(C)c1=O | · | · | 6% | -4% | · | 2% | 1% | 10%
CCOc1ccc(-c2nnc3sc(COc4ccc(C)cc4)nn23)cc1 | -2.7% | 7% | 7%[46.1 µM] | -2% | -15% | 0% | 8% | 8.2µM*
Clc1ccc(Cn2ncc3c(N4CCCCC4)ncnc32)c(Cl)c1 | -0.6% | 6% | 2% | -13% | -10% | 28µM* | · | 3%
CCCN1CCC(=O)N([C@H](CSc2ccc(C)cc2)Cc2ccccc2)CC1 | · | · | · | -2% | 4% | -16% | 0% | ·
COC(=O)C1=C(C(=O)OC)SC(=C2C(=S)C(C)(C)N(C(=O)C3CC3)c3ccccc32)S1 | -4.4% | ? | ? | -23% | 29% | · | ? | -13%
O=C(Nc1cccc(C(=O)N2CCOCC2)c1)c1ccccc1 | 3.1% | -6% | -1% | -1% | -4% | 3% | 2% | -29%
ONC(=Nc1ccc(Cl)cc1)c1ccc(Cl)cc1 | -7.2% | -6% | -5% | -4% | -27% | 24% | -6% | -2%
Cc1ccc(C(=O)NCCCNC(=O)c2ccco2)cn1 | · | · | 16%[46.1 µM] | -8% | 12% | -13% | -1% | 0%
COC(=O)c1ccccc1NC(=O)Cn1c(=O)n(-c2cccc(OC)c2)c(=O)c2c(C)c(C(=O)N(C)C)sc21 | 1.3% | 21% | · | · | · | -21% | · | 1%[46.1 µM]
COc1cc(OC)cc(C(=O)Nc2ccc(Cl)cc2C(=O)c2ccccc2Cl)c1 | -0.4% | -4% | · | · | · | -17% | · | 2%[46.1 µM]
CCN(C(=O)CSc1nc(C)c(C)c(C)n1)C1CCS(=O)(=O)C1 (configuration not stated) | · | · | 12% | 9% | · | -13% | 6% | 16%
CC(C)c1nc2ccccc2c2nnc(SCC(=O)NCc3ccco3)n12 | -3.5% | 2% | ? | 6% | -6% | -28% | 5% | 1%
O=C(Cn1nnc(-c2ccccc2)n1)Nc1ccccc1N1CCOCC1 | 3.8% | -7% | -2% | -7% | 3% | · | 2% | 4%
O=C(/C=C/c1ccc([N+](=O)[O-])cc1)OCC(=O)N1CCCCCC1 | · | · | -19% | 1% | · | -9% | -11% | 2%
O=C1c2ccccc2C(=O)N1S(=O)(=O)c1ccccc1 | · | · | 0%[46.1 µM] | -1% | 4% | -6% | -3% | 0%[46.1 µM]
COC(=O)c1sccc1NC(=S)N1CCCCC1C (configuration not stated) | -1.3% | -8% | 27% | ? | -12% | 2% | -2% | -1%
CN(Cc1c(C(=O)N/N=C/c2ccccc2)nnn1-c1nonc1N)C1CCCCC1 | · | · | · | -18% | -11% | -15% | -3% | ·
CCOc1ccc(Br)cc1S(=O)(=O)NC(=O)c1ccccc1 | · | · | -1% | -3% | 2% | 6% | -1% | 3%
CCS(=O)(=O)N1N=C(c2ccc(C)cc2)CC1c1cc2ccc(OC)cc2nc1Cl (configuration not stated) | -3.8% | -14% | -30%[46.1 µM] | · | · | 31%[activator] | · | -8%[46.1 µM]
CCC(=O)c1ccc(OCc2ccc(C(=O)OC)cc2)c(OC)c1 | -7.3% | -6% | 9% | 13% | -15% | -13% | 3% | 5%
COc1cccc(OC)c1C(=O)Nc1ccccc1C(=O)N1CCOCC1 | 2.4% | -4% | -13% | 5% | 4% | -3% | 5% | -1%
CC(C)c1ccc(NC(=S)NN(c2ccccc2)c2ccccc2)cc1 | -9.6% | ? | -1% | 12% | 1% | -5% | -12% | ?
COC(=O)CC1=NN(c2nc(C)cc(C)n2)C(=O)C1 | · | · | -5% | 9% | · | -2% | -2% | 14%
CC1(C)CC(=O)C(C(N)=NC(=O)c2ccccc2)=C(O)C1 | · | · | 23%[46.1 µM] | -6% | · | 6% | 0% | 0%[46.1 µM]
CCCCn1nnnc1SCC(=O)Nc1ccc2c(c1)OCO2 | -1.4% | -8% | -1%[46.1 µM] | 8% | -6% | 5% | -2% | -11%
Cc1cc(C)cc(N(CC(=O)NCC2CCCO2)C(=O)CCC(=O)Nc2nccs2)c1 (configuration not stated) | · | · | -28% | -1% | 6% | 6% | 0% | 1%
CC1=NN(C(=O)Cc2ccc([N+](=O)[O-])cc2)C(O)(C(F)(F)C(F)(F)F)C1 (configuration not stated) | · | · | · | 28% | 8% | -3% | 0% | ·
CCN=C(NCC)SC1CC(=O)N(c2ccc(F)cc2)C1=O (configuration not stated) | · | · | · | -16% | 7% | -8% | -1% | ·
CC(=O)Nc1ccc(C(=O)CCl)cc1 | -23% | -13% | 3% | -9% | · | 28µM* | 1% | ·
O=C(NNC(=O)C1CCN(S(=O)(=O)c2ccc(Cl)cc2)CC1)c1ccc(S(=O)(=O)N2CCCCC2)cc1 | -1.9% | 8% | 11% | 3% | -1% | -15% | 8% | 16%
COc1ccc(NC(=O)c2ccccc2SC)cc1 | · | · | 22%[46.1 µM] | -24% | -2% | 20% | -1% | -8%[46.1 µM]
COc1cccc(-c2cc(C(=O)NC3CC3)c3ccccc3n2)c1 | · | · | · | -6% | -2% | ? | -5% | ·
FC(F)(F)c1cnc(Oc2ccc(-c3nnco3)cc2)c(Cl)c1 | 3.9% | 28% | -13% | 22% | -13% | -18% | 13% | 12%
Clc1ccc2c(N/N=C/c3cccnc3)ccnc2c1 | · | · | ? | 6% | · | 5% | -3% | ?
Cc1ccc(C2=NN(S(C)(=O)=O)C(c3ccc4c(c3)OCO4)C2)cc1 (configuration not stated) | -1.6% | 0% | ? | -9% | 10% | 32%[activator] | -13% | ?
CC(Oc1ccc([N+](=O)[O-])cc1Cl)C(=O)Nc1ccc(C(N)=O)cc1 (configuration not stated) | · | · | -2%[46.1 µM] | 12% | 4% | -11% | 2% | -10%
O=C(Nc1cc(Cl)ccc1Cl)N1CCCC1 | · | · | 3% | -13% | -2% | -3% | 0% | 3%
Cn1cccc1C(=O)NNC(=O)COc1ccc(Br)cc1 | · | · | 8%[46.1 µM] | -1% | · | -18% | 2% | -14%
OCC(Cl)CCl (configuration not stated) | -0.4% | -1% | · | 0% | · | -16% | -6% | ·
CC(OC(=O)C(NC(=O)c1ccco1)C(C)C)C(=O)Nc1ncc(Cl)cc1Cl (configuration not stated) | 1.5% | 2% | -14% | 7% | 2% | -15% | -1% | 1%
CN(C)CCCOC(=O)c1ccc(Cl)cc1 | 0.0% | -2% | 7% | 12% | -7% | 1% | 3% | -3%
Cc1ccccc1C(=O)Nc1c(C)nc2ccccn2c1=O | -5.7% | -9% | · | · | · | -5% | · | 27%[46.1 µM]
C/C(N)=C(/C#N)C(=O)COC(=O)CSc1ccc2ccccc2c1 | -9.9% | -8% | 25% | 6% | -15% | -20% | -7% | 19%
CCOc1ccc(C(=O)c2ccc([N+](=O)[O-])cc2Cl)cc1 | · | · | ? | -10% | -7% | -7% | -2% | 25%
Nc1cc(C(=O)OCC(=O)NCC2CCCO2)ccc1Cl (configuration not stated) | 1.9% | 3% | 22% | -5% | -4% | 11% | 0% | 2%
O=C(NCC1CCCO1)C(c1ccc(F)cc1)N(CC1CCCO1)C(=O)c1ccc(-c2ccccc2)[nH]1 (configuration not stated) | · | · | · | 4% | -8% | 20% | 1% | ·
Cc1cccc(N(C)C(=O)COc2cc(=O)n(C)c3ccccc23)c1 | -1.8% | 2% | · | -1% | ? | -19% | 1% | ·
Cc1ccc(CNC(C)c2ccccc2)cc1 (configuration not stated) | 0.4% | 20% | -30% | 11% | -13% | -20% | -1% | -26%
O=C(NNc1cccc(Cl)n1)Nc1ccccc1F | · | · | -4%[46.1 µM] | 9% | · | 39%[activator] | -1% | -3%
CC(C)CN(C(=O)CSc1nc(-c2ccccc2)cn1N)c1c(N)n(Cc2ccccc2)c(=O)[nH]c1=O | · | · | 1% | 1% | · | 17% | 2% | 15%

More records follow:
SMILES | Cruzain inh Det | Cruzain inh noDet | MARV entry inh | RE007 growth inh | NS1 function inh | StopGo reporter | SARS PLpro yeast | LASV entry inh
O=S(=O)(NCCc1csc(-c2cccnc2)n1)c1cccs1 | 1.6% | 0% | · | -3% | -7% | 12% | 1% | ·
Cc1nnc(NC(=O)CSc2ncnc3scc(-c4ccccc4)c23)s1 | 1.3% | -26% | -4% | 1% | 22% | -16% | -3% | -2%
COc1cccc(C(=O)NNC(=O)CCc2ccccc2)c1 | · | · | ? | 13% | · | -19% | 2% | 1%
O=C(Nc1ccc(N2CCCCC2)cc1)C(Cl)c1ccccc1 (configuration not stated) | · | · | ? | 1% | 14% | 25% | 1% | ?

Compound activity from PubChem.
